Compound activity: PubChem BioAssay, National Center for Advancing Translational Sciences (NCATS)
TRPV1 potentiator: enhances activation of the human vanilloid receptor TRPV1 | TRPV1-expressing cells, Fluo-8 calcium influx, capsaicin EC20 potentiation; host cell line not named in the record; control for the full effect not named in the record | potentiation, % at 8.33 µM | 0.02% of 320,000 active | AID 540277; active means potentiation above 80%; inconclusive means 30% to 80%; inactive means below 30%; further: 0% is about no effect
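Cells expressing TRPV1 were dye-loaded with Fluo-8 and read kinetically: 10 s baseline, 3 min after compound (agonist portion), then 2 min after EC20 capsaicin (allosteric enhancer portion). Calcium-bound dye fluorescence at 480/520 nm.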
TRPML1 agonist: agonists of human TRPML1 channel. Q9GZU1. TRPML1-expressing cells, Ca2+ dye fluorescence, FDSS; host cell line not named in the record; reference of the full effect not given here. activation, % (concentration not given with the values). 0.12% of 410,000 active; in the data active = activation above about 50%; inconclusive = about 30% to 50%; inactive = below about 30%; further: 0% is about no effect; the text of the record puts the active cut at 80%
Target sequence (Q9GZU1 whole entry, looked up): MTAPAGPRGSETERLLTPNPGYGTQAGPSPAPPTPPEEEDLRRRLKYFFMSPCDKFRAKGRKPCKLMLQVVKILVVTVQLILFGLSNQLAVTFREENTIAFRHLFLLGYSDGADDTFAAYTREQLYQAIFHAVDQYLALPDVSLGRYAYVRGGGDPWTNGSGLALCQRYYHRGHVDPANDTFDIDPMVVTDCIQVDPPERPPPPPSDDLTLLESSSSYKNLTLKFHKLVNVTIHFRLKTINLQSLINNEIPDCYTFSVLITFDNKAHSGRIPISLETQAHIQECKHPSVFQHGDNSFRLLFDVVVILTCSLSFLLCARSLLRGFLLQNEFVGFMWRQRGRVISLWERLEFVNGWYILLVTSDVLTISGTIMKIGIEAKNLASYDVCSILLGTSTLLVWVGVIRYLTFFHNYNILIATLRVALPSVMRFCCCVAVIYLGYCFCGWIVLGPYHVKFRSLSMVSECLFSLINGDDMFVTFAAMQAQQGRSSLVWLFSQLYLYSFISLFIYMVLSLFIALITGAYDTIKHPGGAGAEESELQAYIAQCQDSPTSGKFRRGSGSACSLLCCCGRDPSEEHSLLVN
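In this qHTS format, compounds were pin-transferred onto Ca8-dye-loaded TRPML1-DL cells induced with Tet overnight, and intracellular Ca2+ fluorescence was recorded kinetically for 110 s after a 10 s baseline. A subsequent 4uM final 54-4 (EC80) addition followed by a second 110 s read served as the antagonist phase.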
Sfp PPTase inh: inhibitors of Bacillus subtilis Sfp phosphopantetheinyl transferase. Q9F4F7. Potency, µM, inactives show max response, negative = inhibition, most hits filed as inhibitors. 3.5% of 310,000 active. Biochemical Sfp PPTase activity, qHTS; active means well fitted inhibition curve with a large enough effect; inconclusive means small, poorly fitted or top-dose-only effect, or another doubt; inactive means no such curve, though single readings can be large or run the other way;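 further: the enzyme is Sfp with the accession as filed and its product quenches rhodamine fluorescence; potency means the concentration at half of the fitted maximal effect; 0% = enzyme reaction without inhibitor and -100% = no enzyme wells; top concentration of the series not given in the record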
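Sfp 15 nM + cpd, 15 min RT; start w/ rhodamine-CoA 5 uM, BHQ-2-YbbR 12.5 uM (final); 50 mM Hepes pH 7.6, 10 mM MgCl2, 0.01% NP-40, 0.01% BSA; read 525/598 nm at 0 and 30 min.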
ClpP mod: qHTS Assay for Activators of ClpP | purified B. subtilis ClpP, FRET peptide cleavage, 20 min | 1.9% of 340,000 active | Potency, µM (highest dose often 57.5 µM), for inactives: at the highest dose activity change, negative = active | AID 651965, 2013 | ATP-dependent Clp protease proteolytic subunit (Bacillus subtilis (strain 168)), P80244; active = well fitted falling curve with a large enough effect; inconclusive = small, poorly fitted or top-dose-only effect; inactive = no such curve, though single readings can be large or run the other way; further: potency means the concentration at half of the fitted maximal effect; the source files actives as falling curves though it sought activators and does not explain the sign; nearly all actives have a fitted effect of over 65% in size; many hits overshoot -100%
Target sequence (P80244 whole entry, looked up): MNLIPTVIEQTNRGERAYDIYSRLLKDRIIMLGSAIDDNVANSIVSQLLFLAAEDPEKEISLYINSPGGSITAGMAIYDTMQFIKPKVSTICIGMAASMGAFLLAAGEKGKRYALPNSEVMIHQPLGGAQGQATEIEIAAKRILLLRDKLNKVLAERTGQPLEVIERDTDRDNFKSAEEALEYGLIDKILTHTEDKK
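Buffer: 100 mM Tris/HCl pH8, 100 mM KCl, 0.05% low protease BSA, 2.5% glycerol, 0.01% Tween-20. ClpP 10 microg/mL final; 20 min RT; delta FRET normalized to ADEP and DMSO controls.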
PINK1 expr mod: PINK1 expression modulation | AID 624263 | 0.2% of 410,000 active | Potency, µM (highest dose often 76.6 µM), without a hit: top-dose activation (PINK1 increase), hits mostly activators | PINK1 immunofluorescence, high-content cytometry, 24 h; active = well fitted activation curve with a large enough effect; inconclusive = small, poorly fitted or top-dose-only effect; inactive = flat fitted curve, though single readings scatter; cell line not stated here;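 further: potency means the concentration at half of the fitted maximal effect; % of control where 0% means no effect; nearly all actives have a fitted effect of over 65% in size; a mitochondrial uncoupler was the plate control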
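Cells are seeded, rested 12 hours, then given compound at five concentrations or DMSO for 24 hours. After fixation, blocking and antibody staining, PINK1 amount and mitochondrial localization are scored; CCCP serves as control.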
Menin-MLL FL inh: inhibitors of human menin-MLL interaction, wild-type MLL peptide | Fluorescence polarization, fluorescein-MLL peptide displacement from menin | FP activity change, % at 61.4 µM | 290,000 tested, under 10 active; inconclusive = falling polarisation curve, or a change in total fluorescence; inactive = total fluorescence flat and polarisation flat or rising; no compound was filed as active; the % refers to the polarisation; negative = inhibition;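 further: % of control where 0% means no effect; inhibitors lower the polarisation; unlabelled MLL peptide was the positive control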
TRPML1 inh: blocks the human TRPML1 channel. TRPML1-inducible cells, Ca2+ dye fluorescence, FDSS; hits give low values; inhibition of EC80 agonist-evoked calcium signal. 0.02% of 390,000 active. activity change, negative = inhibition, % (test concentration not listed). Q9GZU1. AID 624415; in the data active means activity change below about -50%; inconclusive means about -30% to -50%; inactive means above about -30%;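 further: stimulus is agonist 54-4 at its EC80 concentration; on the % scale 0 is the no-effect control and ±100 the full control effect; compound concentration not given in the record; the text of the record puts the active cut at -80%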
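TRPML1-DL cells, Tet-induced overnight (~16 h, 37 °C) at 1,500 cells/well, were loaded with Ca8 no-wash dye plus quencher for 45-90 min at room temperature. Compounds were pinned during FDSS kinetic reading; agonist 54-4 at EC80 (4 uM final) then added.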
Active calls of the source: *; u = inconclusive; x = no result given; & = joins results of further samples; [ ] = another dose, or the depositor's remark. Not a hit list; about 4.4% have a hit in one of these screens.

Below each SMILES: TRPV1 potentiator | TRPML1 agonist | Sfp PPTase inh | ClpP mod | PINK1 expr mod | Menin-MLL FL inh | TRPML1 inh
> Cc1cccc(C(=O)Nc2c(C#N)c(C)c(C)n2Cc2ccccc2)c1
  -13 | 1.6 | u | -1.2% | 5.9% | 0.1 | 3
> CC(C)c1cc(CNC(=O)C2CCC(=O)N(CCc3ccc(Cl)cc3)C2)on1 (configuration not stated)
  1 | -0.8 | 12% | -1.3% | -1.3% | -0.8 | 34
> O=C(CNCc1ccccc1)Nc1ccccc1-c1ccccc1
  4 | 0.1 | 10% | x | 1.5% | 5.5 | -6
> CCc1c(C)nc2cc(-c3ccccc3)[nH]n2c1=O
  -1 | 0.6 | 17% | x | 0.4% | -1.6 | -2
> Cc1ccc(-c2csc3ncnc(N4CCN(C)CC4)c23)cc1C
  -22 | 0.6 | 19% | -0.8% | -1.2% | 0.0 | 8
> Cc1ccc(NC(=O)COc2nsnc2N2CCOCC2)cc1Cl
  12 | 0.0 | 3% | x | 2.3% | 0.0 | 28
> N#Cc1c(NC(=O)c2nc3ncccn3n2)sc2c1CCCCC2
  -8 | -0.4 | -22% | -2.9% | 11% | -2.6 | 14
> COc1cccc(-c2ccc(CN3C(C)C(=O)N(Cc4cn(Cc5ccco5)nn4)CCS3(=O)=O)cc2)c1OC (configuration not stated)
  x | 0.5 | x | -0.7% | 3.2% | x | x
> Cc1ccc(NC(=O)C2CCN(C(=O)OC(C)(C)C)CC2)cc1S(=O)(=O)N1CCCCC1
  17 | 1.5 | x | 0.7% | 7.7% | x | -1
> O=C(COc1ccccc1[N+](=O)[O-])Nc1ccc(CN2CCOCC2)cc1
  -2 | -0.2 | 6% | x | -2.2% | -4.0 | 9
> Cn1c(CNC(=O)Cc2ccc3c(c2)OCO3)nnc1SCc1ccccc1
  8 | 2.7 | 18% | 0.5% | -1.7% | -0.6 | -4
> CN(C)C(=O)c1ccc(-c2nc(NC3CCNCC3)c3ccccc3n2)cc1
  x | x | 14% | x | 2.4% | 1.9 | x
> Cc1oc(-c2cccs2)nc1CS(=O)CC(=O)NCc1ccc2c(c1)OCO2 (configuration not stated)
  3 | 0.7 | -21% | x | -3.1% | 1.5 | -8
> Cc1ccccc1Nc1cc(C(=O)NCCCN2CCN(c3cccc(Cl)c3)CC2)c2ccccc2n1
  x | 4.0 | x | -29% | 3.9% | x | 5
> CCN(CC)c1ccc(NC(=O)Cn2nc(C)n3cccc3c2=O)c(C)c1
  x | -0.4 | x | 0.1% | 0.8% | x | -11
> COCc1cc(=O)[nH]c(SC)n1
  3 | 0.5 | 7% | 0.3% | 0.8% | 2.8 | 3
> CCOc1ccc(NC(=O)CC2C(=O)N(c3ccccc3)C(=S)N2Cc2ccccn2)cc1 (configuration not stated)
  21 | 0.8 | 9% | 0.2% | 3.0% | -1.5 | 18
> Nc1cccc([N+](=O)[O-])c1
  1 | 0.4 | 15% | -0.7% | -0.3% | -3.2 | -1
> CC(=O)Nc1nc(C(=O)O)cs1
  0 | -0.3 | u | x | 0.4% | -1.4 | 2
> CCCCn1c(SCC(=O)Nc2nnc(C)s2)nc2c1c(=O)n(C)c(=O)n2C
  -15 | 0.5 | 0% | -1.6% | u | 2.0 | -5
> CSc1cccc(NC(=O)c2cccc(N3CCCS3(=O)=O)c2)c1
  x | 1.7 | x | 1.2% | -0.5% | x | -17
> Cc1ccc(C(=O)N/C(=C\c2ccc3c(c2)OCO3)C(=O)Nc2ccc(C(=O)O)cc2)cc1
  u | 0.7 | 7% | x | -1.1% | 2.4 | -8
> COc1ccc(C2=NOC(Cn3nc(C(=O)NCc4ccc(OC(F)(F)F)cc4)cc3-c3ccccc3)C2)cc1 (configuration not stated)
  17 | 0.2 | x | -5.4% | 0.3% | x | -11
> Cc1ccc(-n2cccn2)c(CN2CCC(CO)(CCc3ccccc3)CC2)c1
  7 | 0.3 | 14% | x | 0.5% | 1.5 | 9
> CCn1cc(C(=O)NCC2CCCO2)c2cc(OC)c(OC)cc2c1=O (configuration not stated)
  12 | -0.1 | 12% | u | 1.8% | 2.9 | -3
> Cc1cccc(N2CCN(C(=O)c3ccccn3)CC2C)c1 (configuration not stated)
  -23 | -0.7 | -6% | x | 1.0% | -0.7 | 5
> O=c1/c(=C\c2ccc(F)cc2)sc2n1CCCN=2
  4 | 0.2 | 6% | x | -0.9% | -1.0 | 17
> O=C(Nc1ccn(CCCN2CCN(Cc3ccc(F)cc3)CC2)c(=O)n1)OCc1ccccc1
  x | -0.6 | x | 1.0% | 0.3% | x | -6
> CCCCc1cc(=O)oc2cc(OCc3nn[nH]n3)c(Cl)cc12
  -6 | 0.3 | 6% | 28µM* | -0.7% | -1.2 | u
> O=C(O)C1CCCN1S(=O)(=O)c1ccc(Cl)cc1 (configuration not stated)
  -13 | 1.1 | 16% | 1.0% | -1.0% | 4.9 | 0
> NC(=O)C(CC(=O)O)NC(=O)[C@@H]1CCCCNc2c(I)cc([N+](=O)[O-])cc2C(=O)N[C@@H](CO)C(=O)NCC(=O)N1 (some centres not stated)
  16 | x | -6% | x | x | 5.2 | x
> CCC(=O)NC(=S)Nc1ccc(NC(=O)c2ccc(OC)cc2)cc1
  -6 | -0.5 | 2% | -1.1% | 1.4% | 4.9 | u
> Cc1ccc2nc(-c3cccs3)oc(=O)c2c1
  -10 | -1.4 | 13% | -1.5% | 0.3% | 6.6 | -26
> Cc1ccccc1CSc1nc2c([nH]c3ccccc32)c(=O)n1-c1ccccc1
  x | 3.2 | x | -5.2% | 0.9% | x | 68
> COc1ccc(N2CCN(C(=S)NCc3ccccc3)CC2)cc1
  -17 | 0.4 | 22% | -0.6% | 5.6% | -1.4 | -3
> CCCCNC(=O)CC1S/C(=N/N=C/c2ccc(OC)cc2)NC1=O (configuration not stated)
  19 | -0.4 | 11% | 33% | 0.3% | 0.4 | 4
> COc1ccc(-c2csc3nc(-c4cccnc4)nc(N4CCC(C(N)=O)CC4)c23)cc1OC
  8 | 0.7 | -32% | -16% | -1.1% | 2.2 | 8
> S=C(NCC1CCCO1)N1CCN(Cc2ccccc2Cl)CC1 (configuration not stated)
  2 | 1.9 | 12% | 0.4% | -0.7% | -2.2 | 5
> Cc1ccc(NC2CC(=O)N(c3cccc([N+](=O)[O-])c3)C2=O)cc1 (configuration not stated)
  1 | 0.0 | 11% | 2.0% | 2.0% | 1.8 | 0
> CCOC(=O)C(C)Sc1nc(C2CC2)cc(C(F)(F)F)c1C#N (configuration not stated)
  -3 | 1.4 | 7% | -17% | -0.7% | 2.7 | 4
> C=CCn1cc(CN2CCC(C(=O)Nc3ccc(Oc4cccnc4)cc3)CC2)c(C)n1
  7 | -0.7 | 23% | -0.1% | 1.2% | -0.1 | 7
> CC(=O)C1=C(c2ccccc2)NC(=O)NC1c1ccccc1OCC(=O)NCc1ccccc1 (configuration not stated)
  -3 | 0.5 | 6% | -1.7% | 0.2%[38.3 µM] | 1.2 | -6
> CC1CCN(C(=O)CCNS(=O)(=O)c2ccccc2)CC1
  -14 | 0.4 | 20% | -4.3% | 1.6% | 2.4 | -13
> COc1ccccc1N1CCN(S(=O)(=O)CCNC(=O)C2CC(=O)N(c3ccccc3)C2)CC1 (configuration not stated)
  u | -1.0&0.9 | 15% | -0.3%&1.2% | -0.5%&-0.9% | -10 | -21&33
> CCc1ccccc1NC(=O)Cn1c(=O)n(Cc2ccc(OC)cc2)c(=O)c2oc3ccccc3c21
  x | 1.4 | x | -0.9% | -0.7% | x | -25
> CN(C)CCSc1nc(N)c2c3c(sc2n1)CN(C)CC3
  7 | -0.3 | 12% | u | 2.4% | 2.0 | 15
> CCCCC1CC2=C(C(=O)OC(C)(C)O2)C(c2ccc(Cl)cc2)O1 (configuration not stated)
  x | 4.0 | x | 2.6% | 10% | x | 60
> CC(C)N(Cc1ccccc1)C(=O)COC(=O)c1ccc2ncsc2c1
  0 | 1.4 | x | 0.3% | -0.6% | x | 8
> CC1CN(C)C(C)C/C1=N/Oc1ccccc1[N+](=O)[O-] (configuration not stated)
  -3 | 0.5 | 0% | x | -1.8% | -1.2 | 26
> Cc1ccc(C)c(Cn2c3ccccc3c3cnn(CC(=O)NCCCN4CCOCC4)c(=O)c32)c1
  22 | -0.1 | -3% | 3.2% | -1.8% | x | -7
> O=C(CSc1nnc(-c2cccc(S(=O)(=O)N3CCOCC3)c2)n1C1CCCCCC1)NCc1ccccc1
  -2 | -0.1 | 3% | -0.3% | 4.4%[38.3 µM] | -1.5 | 22
> COc1nc(N)c(C#N)c(-c2ccc(N(C)CCC#N)cc2)c1C#N
  u | 3.6 | -6% | 4.2% | 1.7% | 8.9 | -1
> COC1=CC2(O)CCCC2=CC1=O (configuration not stated)
  -3 | -0.1 | 10% | 1.0% | -0.5% | -1.1 | 41
> COc1cc(OC)cc(-c2c(-c3cccs3)c3cc(-c4ccc(SC)cc4)ccc3n2C)c1
  -21 | -1.0 | x | 11% | -1.1% | x | 1
> Cc1ccc(N2C(N)=NC(N)=NC2(C)C)c(C)c1
  14 | -0.9 | 4% | -0.6% | 4.0% | -0.3 | -1
> Cc1ccccc1OCCCn1c(-c2ccc(Cl)cc2)nc2ccccc2c1=O
  x | 0.2 | x | -2.2% | 0.4% | x | -7
